Compound activity as filed in PubChem BioAssay.
HIV Env fusion: HIV envelope-mediated fusion inhibition; hit rate 1.1% among 360,000; HeLa-JRFL Env/CEM21 cell fusion, luciferase; AID 651610; inhibition, % at 12.3 µM;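 active means mean replicate inhibition score of at least 50 and every replicate individually at or above 50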;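 further: 0% = plate neutral controls and 100% = maraviroc near 300 nM; one replicate is shown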
UUG fidelity: modulators of start codon recognition fidelity in yeast; S. cerevisiae UUG-firefly luciferase reporter, luminescence/redox ratio; activity score, % at 18.7 µM; hit rate 0.13% among 350,000;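 active means replicate mean at a twofold rise or more, about +100% in these data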;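 further: firefly luciferase made from a UUG start codon reports start codon fidelity; reporter light over untreated wells divided by growth signal over untreated wells; some hits fall short of that in this replicate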
* = called active by the depositor; [ ] = remark or other dose. Only part of the results is shown (hit frequency here may not be typical).

HIV Env fusion,UUG fidelity,canonical_smiles
-9[16.7 µM],-10,O=C(CN1CCOCC1)N[C@@H]1CC[C@H](CCNC(=O)C2CCCC2)O[C@H]1CO
30[16.7 µM],-2,C[C@@H]1CN([C@H](C)CO)C(=O)Cc2cc(NC(=O)CCCCCC(=O)Nc3ccccc3N)ccc2O[C@H]1CN(C)CC1CCCCC1
4[16.7 µM],23,CCC(=O)N[C@H]1CC[C@H](CCNC(=O)Nc2ccc(C(F)(F)F)cc2)O[C@@H]1CO
-6[16.7 µM],-4,C[C@@H]1CCCCO[C@@H](CN(C)Cc2ccc(C(=O)O)cc2)[C@@H](C)CN([C@H](C)CO)C(=O)c2cc(NC(=O)Nc3ccc(C(F)(F)F)cc3)ccc2O1
115*[16.7 µM],-17,C[C@@H]1CN([C@H](C)CO)C(=O)c2cc(NC(=O)Nc3ccc(C(F)(F)F)cc3)ccc2O[C@@H](C)CCCCO[C@H]1CN(C)C(=O)Nc1ccc(C(F)(F)F)cc1
38[16.7 µM],9,C[C@@H]1CN([C@H](C)CO)C(=O)c2cc(NS(=O)(=O)c3ccccc3)ccc2O[C@@H](C)CCCCO[C@@H]1CN(C)Cc1ccc(C(F)(F)F)cc1
-18[16.7 µM],22,COCC#Cc1cnc2c(c1)C(=O)N([C@@H](C)CO)C[C@H](C)[C@H](CN(C)C(=O)Nc1ccccc1F)O2
-22[16.7 µM],-14,C[C@H]1CN([C@@H](C)CO)C(=O)c2cccc(NC(=O)C3CCOCC3)c2O[C@@H]1CN(C)CC1CC1
13[16.7 µM],1,CCCN1C[C@H](C)[C@H](OC)CN(C)C(=O)c2cc(NC(=O)c3ccccc3)ccc2OC[C@@H]1C
-9[16.7 µM],-4,C/C=C/c1ccc2c(c1)O[C@@H](CN(C)C(=O)NC1CCCCC1)[C@H](C)CN([C@@H](C)CO)S2(=O)=O
-8[16.7 µM],3,Cc1noc(C)c1NC(=O)Nc1ccc2c(c1)C(=O)N([C@@H](C)CO)C[C@@H](C)[C@@H](CN(C)Cc1ccccc1)OCCCC[C@H](C)O2
12[16.7 µM],-10,C[C@H](CO)N1C[C@H](C)[C@@H](CN(C)S(=O)(=O)c2ccc(F)cc2)OCCCC[C@H](C)Oc2ccc(NC(=O)Nc3ccc(F)cc3)cc2C1=O
2[16.7 µM],59,C[C@@H]1CN([C@@H](C)CO)C(=O)Cc2cc(NC(=O)Nc3ccccc3)ccc2O[C@H]1CN(C)Cc1ccncc1
7[16.7 µM],0,C[C@H]1CN([C@@H](C)CO)C(=O)c2cc(NC(=O)Nc3ccc4c(c3)OCO4)ccc2O[C@@H]1CN(C)C(=O)NC1CCCCC1
0[16.7 µM],13,C[C@H](O)C#Cc1ccc2c(c1)O[C@H](CN(C)C)[C@@H](C)CN([C@@H](C)CO)S2(=O)=O
-46[16.7 µM],-3,COc1ccc(S(=O)(=O)N(C)C[C@@H]2OCCCC[C@@H](C)Oc3ccc(NC(=O)c4ccccc4)cc3C(=O)N([C@H](C)CO)C[C@H]2C)cc1
-5[16.7 µM],-22,O=C(C[C@@H]1C=C[C@@H](NC(=O)C2CCOCC2)[C@H](CO)O1)NCC1CCCCC1
0[16.7 µM],-5,O=C(Nc1ccc(F)cc1)N[C@H]1CC[C@@H](CCn2cc(C3(O)CCCC3)nn2)O[C@@H]1CO
-13[16.7 µM],0,COc1ccc(S(=O)(=O)Nc2ccc3c(c2)C(=O)N([C@H](C)CO)C[C@H](C)[C@H](CN(C)C(=O)Nc2c(C)noc2C)OCCCC[C@@H](C)O3)cc1
-4[16.7 µM],-1,CCc1cnc(N2[C@@H](C#N)[C@H](c3ccccc3)[C@@H]2CO)s1
-2[16.7 µM],3,CCC(=O)N[C@@H]1C=C[C@H](CC(=O)OC)O[C@H]1CO
18[16.7 µM],-18,CCNC(=O)C[C@@H]1C=C[C@@H](NS(=O)(=O)c2ccc(C)cc2)[C@@H](CO)O1
-10[16.7 µM],-13,O=C(C[C@@H]1C=C[C@@H](NC(=O)Nc2ccc(F)cc2)[C@H](CO)O1)NCc1ccccn1
21[16.7 µM],-8,CCCNC(=O)N[C@H]1CC[C@H](CCn2cc(C3CCCC3)nn2)O[C@@H]1CO
-5[16.7 µM],-5,Cc1ccc(N2C(=O)c3ccccc3[C@](C)(C(=O)O)[C@@H]2c2ccc(CO)cc2)nc1

Quoted from the listing.
CCC(=O)N[C@@H]1C=C[C@H](CC(=O)OC)O[C@H]1CO | HIV Env fusion = -2[16.7 µM]
COCC#Cc1cnc2c(c1)C(=O)N([C@@H](C)CO)C[C@H](C)[C@H](CN(C)C(=O)Nc1ccccc1F)O2 | HIV Env fusion = -18[16.7 µM]
C[C@H]1CN([C@@H](C)CO)C(=O)c2cccc(NC(=O)C3CCOCC3)c2O[C@@H]1CN(C)CC1CC1 | UUG fidelity = -14
O=C(C[C@@H]1C=C[C@@H](NC(=O)C2CCOCC2)[C@H](CO)O1)NCC1CCCCC1 | UUG fidelity = -22

Profiles, quoted from the list:
`C[C@@H]1CN([C@H](C)CO)C(=O)c2cc(NS(=O)(=O)c3ccccc3)ccc2O[C@@H](C)CCCCO[C@@H]1CN(C)Cc1ccc(C(F)(F)F)cc1` is listed as HIV Env fusion: 38[16.7 µM]; UUG fidelity: 9
`O=C(CN1CCOCC1)N[C@@H]1CC[C@H](CCNC(=O)C2CCCC2)O[C@H]1CO` is listed as HIV Env fusion: -9[16.7 µM]; UUG fidelity: -10

Back to the main list, repeating the four entries before the break.
HIV Env fusion,UUG fidelity,canonical_smiles
18[16.7 µM],-18,CCNC(=O)C[C@@H]1C=C[C@@H](NS(=O)(=O)c2ccc(C)cc2)[C@@H](CO)O1
-10[16.7 µM],-13,O=C(C[C@@H]1C=C[C@@H](NC(=O)Nc2ccc(F)cc2)[C@H](CO)O1)NCc1ccccn1
21[16.7 µM],-8,CCCNC(=O)N[C@H]1CC[C@H](CCn2cc(C3CCCC3)nn2)O[C@@H]1CO
-5[16.7 µM],-5,Cc1ccc(N2C(=O)c3ccccc3[C@](C)(C(=O)O)[C@@H]2c2ccc(CO)cc2)nc1
-10[16.7 µM],-10,Cc1noc(C)c1NC(=O)Nc1ccc2c(c1)C(=O)N([C@H](C)CO)C[C@H](C)[C@H](CN(C)Cc1ccc(C(=O)O)cc1)OCCCC[C@@H](C)O2
4[16.7 µM],-16,O=C(N[C@@H]1CC[C@@H](CCNS(=O)(=O)c2ccccc2)O[C@@H]1CO)c1cccnc1
10[16.7 µM],-7,CN1C(=O)c2cc(NC(=O)C3CC3)ccc2OC[C@@H]2O[C@H](CC(=O)NCCc3ccncc3)CC[C@H]21
18[16.7 µM],-17,C[C@@H]1CN([C@@H](C)CO)C(=O)c2cc(-c3ccccc3)cnc2O[C@H]1CN(C)C(=O)Cc1ccccn1
20[16.7 µM],-2,C[C@@H]1CN([C@H](C)CO)S(=O)(=O)c2ccc(C#CC3CC3)cc2O[C@@H]1CN(C)C(=O)C1CCC1
4[16.7 µM],2,Cc1noc(C)c1S(=O)(=O)Nc1ccc2c(c1)C(=O)N([C@H](C)CO)C[C@@H](C)[C@@H](CN(C)C(=O)CCCN(C)C)OCCCC[C@@H](C)O2
-16[16.7 µM],2,CO[C@H]1CN(C)C(=O)c2ccc(NC(=O)NC(C)C)cc2OC[C@H](C)N(CCC(F)(F)F)C[C@H]1C
-22[16.7 µM],12,CCCN(C)C[C@@H]1OCCCC[C@@H](C)Oc2ccc(NS(=O)(=O)c3ccc(F)cc3)cc2C(=O)N([C@@H](C)CO)C[C@@H]1C
-161[16.7 µM],2,C[C@H](CO)N1C[C@H](C)[C@H](CN(C)C(=O)c2ccccc2)OCCCC[C@H](C)Oc2ccc(NS(=O)(=O)c3cccs3)cc2C1=O
16[16.7 µM],-20,C[C@H](CO)N1C[C@H](C)[C@@H](CN(C)Cc2ccccn2)Oc2ncc(C#CC3CC3)cc2C1=O
-5[16.7 µM],3,COc1ccc(S(=O)(=O)Nc2ccc3c(c2)CC(=O)N([C@H](C)CO)C[C@@H](C)[C@@H](CN(C)Cc2ccccc2)O3)cc1
2[16.7 µM],-10,C[C@H]1CN([C@@H](C)CO)C(=O)c2cc(NS(=O)(=O)c3ccc(Cl)cc3)ccc2O[C@@H]1CN(C)C(=O)Nc1cccc2ccccc12
4[16.7 µM],5,COc1ccc(S(=O)(=O)N(C)C[C@@H]2Oc3ccc(NS(=O)(=O)c4c(C)noc4C)cc3C(=O)N([C@@H](C)CO)C[C@@H]2C)cc1
5[16.7 µM],-7,COc1ccc(NC(=O)N(C)C[C@@H]2Oc3ccc(NC(=O)C4CCCCC4)cc3CC(=O)N([C@H](C)CO)C[C@H]2C)cc1
23[16.7 µM],-13,C[C@H](CO)N1C[C@H](C)[C@@H](CN(C)C(=O)Nc2ccc(C(F)(F)F)cc2)OCCCC[C@H](C)Oc2ccc(NS(=O)(=O)c3cn(C)cn3)cc2C1=O
22[16.7 µM],6,O=C(NCc1ccccc1)[C@@]1(Cc2ccccc2)N=C(c2ccc(OCCCO)cc2)O[C@H]1c1ccccc1
2[16.7 µM],-5,Cc1noc(C)c1NC(=O)Nc1ccc2c(c1)C(=O)N([C@@H](C)CO)C[C@@H](C)[C@H](CN(C)C(=O)Nc1ccc3c(c1)OCO3)O2
-26[16.7 µM],-19,C[C@@H]1CCCCO[C@H](CN(C)S(=O)(=O)c2cccs2)[C@H](C)CN([C@@H](C)CO)C(=O)c2cc(NC(=O)Nc3ccc4c(c3)OCO4)ccc2O1
-1[16.7 µM],7,COc1ccc(S(=O)(=O)N(C)C[C@@H]2Oc3ccc(N(C)C)cc3CC(=O)N([C@@H](C)CO)C[C@H]2C)cc1
1[16.7 µM],15,CCCNC(=O)C[C@@H]1CC[C@@H]2[C@H](COc3ccc(NC(=O)CCC)cc3C(=O)N2C)O1
23[16.7 µM],-12,CC(C)CC#Cc1ccc2c(c1)O[C@H](CN(C)Cc1cccnc1)[C@@H](C)CN([C@H](C)CO)S2(=O)=O
-23[16.7 µM],11,C[C@H]1CN([C@@H](C)CO)C(=O)c2cc(NC(=O)Cc3ccccc3)ccc2O[C@H]1CN(C)C(=O)NC1CCCCC1
-10[16.7 µM],-1,O=C(C[C@H]1CC[C@@H](NS(=O)(=O)c2cccc(F)c2)[C@@H](CO)O1)NCc1ccc2c(c1)OCO2
14[16.7 µM],0,C/C=C/[C@@H](CCn1cc(CCO)nn1)[Si](C)(C)c1ccc(OC)cc1
10[16.7 µM],1,CCCC#Cc1ccc2c(c1)O[C@@H](CN(C)C(=O)C1CCC1)[C@H](C)CN([C@H](C)CO)S2(=O)=O
7[16.7 µM],3,C[C@@H]1CN([C@H](C)CO)S(=O)(=O)c2ccc(C#Cc3cccc(F)c3)cc2O[C@H]1CN(C)S(=O)(=O)c1cn(C)cn1
-19[16.7 µM],-5,C[C@@H]1CN([C@@H](C)CO)C(=O)c2cc(-c3ccc(F)cc3)cnc2O[C@H]1CN(C)CC1CCOCC1
9[16.7 µM],5,CCCc1cn(CC[C@H]2CC[C@H](NS(=O)(=O)c3ccccc3Cl)[C@@H](CO)O2)nn1
8[16.7 µM],16,COc1cccc(NC(=O)Nc2ccc3c(c2)C(=O)N(C)[C@H]2CC[C@@H](CC(=O)O)O[C@H]2CO3)c1
6[16.7 µM],-6,CCNC(=O)C[C@H]1CC[C@@H]2[C@H](COc3ccc(NC(=O)Nc4ccccc4F)cc3C(=O)N2C)O1
15[16.7 µM],-4,C[C@@H]1CN([C@@H](C)CO)C(=O)c2cc(NS(=O)(=O)c3ccc(Cl)cc3)ccc2O[C@@H](C)CCCCO[C@@H]1CN(C)S(=O)(=O)c1cccs1
1[16.7 µM],-10,CNC[C@H]1Oc2cc(-c3ccccc3F)ccc2S(=O)(=O)N([C@H](C)CO)C[C@H]1C
-20[16.7 µM],2,CCCN1C[C@@H](C)[C@@H](OC)CN(C)C(=O)c2ccc(NC(=O)Nc3c(C)noc3C)cc2OC[C@@H]1C
-10[16.7 µM],-9,C[C@@H]1CN([C@@H](C)CO)C(=O)c2cccc(NC(=O)NC3CCCCC3)c2O[C@@H]1CN(C)Cc1ccncc1
10[16.7 µM],20,CNC[C@H]1OCCCC[C@H](C)Oc2ccc(NS(=O)(=O)c3ccccc3)cc2C(=O)N([C@@H](C)CO)C[C@H]1C
-19[16.7 µM],-2,O=C(C[C@H]1C=C[C@@H](NC(=O)C2CCC2)[C@@H](CO)O1)NC1CCCCC1
16[16.7 µM],-5,C[C@H]1CN([C@@H](C)CO)C(=O)c2cc(/C=C/c3ccccc3)cnc2O[C@@H]1CN(C)C(=O)c1ccccc1
21[16.7 µM],22,C[C@@H]1CN([C@@H](C)CO)C(=O)Cc2cc(NC(=O)C3CCCCC3)ccc2O[C@H]1CN(C)Cc1ccc(-c2ccccc2)cc1
-4[16.7 µM],2,CC(C)c1cn(CC[C@H]2CC[C@@H](NS(=O)(=O)Cc3ccccc3)[C@@H](CO)O2)nn1
47[16.7 µM],-6,O=C(N[C@H]1CC[C@H](CCn2cc(C3(O)CCCC3)nn2)O[C@@H]1CO)C1CC1
4[16.7 µM],-3,CN1C(=O)c2cc(NC(=O)c3ccc(C(F)(F)F)cc3)ccc2OC[C@H]2O[C@H](CC(=O)O)CC[C@H]21
13[16.7 µM],1,COc1ccc(CN(C)C[C@H]2Oc3ccc(NC(=O)Nc4ccc(C(F)(F)F)cc4)cc3CC(=O)N([C@@H](C)CO)C[C@@H]2C)cc1
-1[16.7 µM],2,O=C(C[C@H]1CC[C@H](NC(=O)Nc2cc(F)ccc2F)[C@H](CO)O1)NCc1ccc2c(c1)OCO2
-6[16.7 µM],32,CC(=O)Oc1ccccc1C(=O)OCO/N=[N+](\[O-])N1CCC[C@H]1C(=O)O
-15[16.7 µM],-9,O=C(N[C@@H]1CC[C@H](CCNS(=O)(=O)c2cccc(Cl)c2)O[C@H]1CO)c1ccncc1
5[16.7 µM],4,Cc1ccc(S(=O)(=O)N[C@@H]2CC[C@H](CCNC(=O)C3CC3)O[C@@H]2CO)cc1
-10[16.7 µM],-4,CC(=O)N(C)C[C@H]1Oc2cc(C#C[C@H](C)O)ccc2S(=O)(=O)N([C@H](C)CO)C[C@H]1C
